Source: PubChem
SmPrx2 inh: Schistosoma Mansoni Peroxiredoxins (Prx2); S. mansoni Prx2 activity coupled to TGR/GSH (TGR is thioredoxin glutathione reductase), NADPH fluorescence loss, qHTS; some inactives read as strong as hits; AID 448, 2006; Potency, µM; 65,000 tested, 0.07% active; active means full or partial inhibition curve with a strong effect at the top dose; inconclusive means weaker partial or single-point curve; inactive means no accepted curve; also: series up to 57 µM; many of its hits are not listed in these tables
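Coupled assay in which S. mansoni TGR passes NADPH reducing equivalents via glutathione to Prx2, which reduces H2O2. Compounds were preincubated 15 min at room temperature with 25 nM TGR/50 nM Prx2 mix. Kinetic NADPH fluorescence loss (ex 365/em 450 nm) was monitored.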
LT uptake inh: qHTS Assay for Anthrax Lethal Toxin Internalization; Cells, anthrax lethal toxin internalization, FRET ratio (460/530); Potency, µM (series often up to 40 µM), for the others: at the highest dose activity change, negative = inhibition, hits mostly inhibitors; 70,000 tested, 0.67% active; AID 912, 2007; active = well fitted falling ratio curve with the 530 nm signal flat; inconclusive = other ratio curves, or a change in one channel alone; inactive = flat curves in the ratio and both channels; the % refers to the ratio; also: % is scaled to controls: 0 for no effect and ±100 for the full control effect; nearly all actives have a fitted effect of over 50% in size; tested in ME-180 cells; beta-lactamase reporter
Numbers without * were called inactive; ? = inconclusive; nt = not tested or not shown; & = joins results of further samples; [ ] = another dose, or the depositor's remark. Potency is read from the fitted curve at half-maximal effect. A portion of the library; the hit share may differ from the screen's.

| Structure | SmPrx2 inh | LT uptake inh |
| --- | --- | --- |
| COC(=O)CSc1nc(NCC(C)C)nc(N2CCOCC2)n1 | >57 | 14% |
| Cc1ccc(-c2csc(N(CCCN3CCOCC3)C(=O)c3ccco3)n2)cc1 | >57 | -21% |
| Cc1ccc(NCc2nnc(SCC(=O)N3CCCc4ccccc43)o2)c(C)c1 | >57 | 6% |
| O=c1[nH]c2cc3c(cc2cc1CN(CC1CCCO1)S(=O)(=O)c1ccccc1)OCCO3 (stereo not given) | >57 | -5% |
| CCOC(=O)C1C(=O)NC(N2CCCCC2)=NC1c1ccccc1 (stereo not given) | >57 | -8% |
| Cc1cc(N2CCOCC2)n2nc(C)c(-c3ccccc3)c2n1 | >57 | -6% |
| CCOc1ccc(NC(=O)c2ccccc2OC)cc1 | >57 | 9% |
| Cc1ccc(NC(=O)C2CCN(S(=O)(=O)c3c(C)n[nH]c3C)CC2)nc1 | >57 | ? |
| COc1cccc(OC)c1NC(=O)C1CCCN1C(=O)NCc1ccccc1 (stereo not given) | >57 | 7% |
| FC(F)(F)c1ccccc1-c1nc(NC2CC2)c2ccccc2n1 | >57 | 7% |
| CN1CCN(c2ccc(Cl)cc2NC(=O)C2COc3ccccc3O2)CC1 (stereo not given) | >57 | -10% |
| Cc1ccc(S(=O)(=O)CC2CSc3nc(N)cc(=O)n32)cc1 (stereo not given) | >57 | -3% |
| N#Cc1cccc(NC(=O)N2CC3(CCN(C(=O)c4cnccn4)CC3)C2)c1 | >57 | -8% |
| COc1ccc(-c2oc3ncnc(NCCN4CCOCC4)c3c2-c2ccc(OC)cc2)cc1 | >57 | ? |
| O=S(=O)(c1ccc(Br)s1)n1cccn1 | >57 | -12% |
| Cc1ccc(-c2nn[nH]n2)cc1 | >57 | -4% |
| Cc1occc1-c1nnc(SCC(=O)Nc2ccccc2-c2ccccc2)n1C | >57 | -4% |
| Cc1ccc(S(=O)(=O)O[C@@H]2[C@H]([C@@H]3COC(C)(C)O3)O[C@H]3OC(C)(C)O[C@@H]32)cc1 | >57 | -4%[8 µM] |
| COc1ccc(-c2csc3c2[N+]2=CCC=C2C3=O)cc1 | >57 | ? |
| CC1(C)NC(=O)N(CC(O)CN2C(=O)NC(C)(C)C2=O)C1=O | >57 | -4% |
| Cc1cc(C)n2nc3nc(N4CCCCC4)nc(-c4ccco4)c3c2n1 | >57 | -6% |
| NS(=O)(=O)c1ccc(NC(=O)COC(=O)CSc2n[nH]c(-c3ccccc3)n2)cc1 | nt | -28% |
| O=C(C1CCCN1S(=O)(=O)c1ccc(Cl)c(Cl)c1)N1CCOCC1 (stereo not given) | >57 | 18% |
| CCN(CC)C(=S)SSC(=S)N(CC)CC | >57&>57 | ? |
| CCCCCCCC[N+](CCCCCCCC)(CCCCCCCC)CCCCCCCC | nt | ? |
| O=C1c2oc3ccc(Cl)cc3c(=O)c2C(c2cccc(Br)c2)N1CCO (stereo not given) | >57 | 9% |
| COc1ccc(C2C3C(=O)N(Cc4ccccc4)C(=O)C3ON2c2ccccc2)c(OC)c1OC (stereo not given) | >57 | nt |
| Cn1c(=O)c2cc(S(=O)(=O)NCCC(=O)NCC3CCCO3)ccc2n(C)c1=O (stereo not given) | >57 | -2% |
| COC(=O)c1ccc(CSc2ccc3nnc(-c4cccnc4)n3n2)o1 | >57 | 11% |
| Cc1ccc(-c2noc(CCC(=O)NCCN3CCc4ccccc4C3)n2)cc1 | >57 | 0% |

Complete entries as entered above. Screens in order: SmPrx2 inh | LT uptake inh
`NS(=O)(=O)c1ccc(NC(=O)COC(=O)CSc2n[nH]c(-c3ccccc3)n2)cc1` is listed with nt | -28%
`O=C1c2oc3ccc(Cl)cc3c(=O)c2C(c2cccc(Br)c2)N1CCO` (stereo not given) is listed with >57 | 9%
`Cc1ccc(-c2noc(CCC(=O)NCCN3CCc4ccccc4C3)n2)cc1` is listed with >57 | 0%
`CCCCCCCC[N+](CCCCCCCC)(CCCCCCCC)CCCCCCCC` is listed with nt | ?
`COc1ccc(C2C3C(=O)N(Cc4ccccc4)C(=O)C3ON2c2ccccc2)c(OC)c1OC` (stereo not given) is listed with >57 | nt

Additional entries
| Structure | SmPrx2 inh | LT uptake inh |
| --- | --- | --- |
| CCN1CCN(C(c2cccs2)C(C)NC(=O)c2c(F)cccc2F)CC1 (stereo not given) | >57 | -22% |
| CN(C)CCCN1C(=O)C(=O)/C(=C(/O)c2ccc3c(c2)OCO3)C1c1ccco1 (stereo not given) | >57 | 3% |
| N#Cc1c2n(c3c(=O)n(CC(=O)c4ccc(Br)cc4)cnc13)CCCC2 | >57 | -21% |
| CCn1c(SCc2cccnc2)nc2c1c(=O)n(C)c(=O)n2C | >57 | -5% |
| CN1C(=O)c2c(sc3c2CC(C)(C)SC3)N2CCN=C12 | >57 | 15% |
| O=C(CSc1nnc(-c2ccccc2)n1Cc1ccccc1)NC1CC1 | >57 | ? |
| Cc1cnc(CNc2nc(-c3c(C)noc3C)nc3ccccc23)cn1 | >57 | 13% |
| CCN(CC)C(=O)CSc1nnc(-n2nc(C)cc2C)c2ccccc12 | >57 | 2% |
| COc1ccc(CCNC(=O)C2CCCN(C(=O)N(C)C)C2)c(OC)c1 (stereo not given) | >57 | 9% |
| COC(=O)c1cc2c(s1)CS(=O)C2 (stereo not given) | >57 | -1% |
| Cc1ccc(CN2CC(C(=O)Nc3ccc4c(C)cc(=O)oc4c3)CC2=O)cc1 (stereo not given) | >57 | 2% |
| Cc1ccc2cc3cc(C(=O)N4CCCCC4C)oc3nc2c1 (stereo not given) | >57 | 12% |
| COC(=O)c1ccc(-n2nnnc2SCc2ccccc2OC)cc1 | >57 | ? |
| CN1C(=O)c2cccc(NCCCN3C(=O)c4ccccc4C3=O)c2C1=O | >57 | ? |
| Cc1cc(C)n(C(=O)c2ccc(C)c(S(=O)(=O)N3CCOCC3)c2)n1 | >57 | 6% |
| CC1CCc2c(sc3nc(SCc4nc(-c5ccccc5)no4)n(C)c(=O)c23)C1 (stereo not given) | >57 | -5% |
| Cc1noc(C)c1S(=O)(=O)N(CC(=O)Nc1ccc2c(c1)OCCO2)c1ccc(C(C)C)cc1 | >57 | ? |
| Cc1nc(C)c(C(=O)Nc2ccccc2)s1 | nt | 1% |
| CCOC(=O)N1CCN(C(=O)c2ccc3c(=O)n(Cc4ccc(OC)cc4)c(=S)[nH]c3c2)CC1 | >57 | ? |
| O=C(CCSc1nccn1Cc1ccccc1)N1CCOCC1 | nt | -12% |
| CCC/C(=C1/C(=O)CC(C)(C)C(C(=O)OC)C1=O)N1CCCC1 (stereo not given) | nt | 16% |
| Cc1cc(C)nc(N2CCC(C(=O)O)CC2)n1 | >57 | 7% |
| COc1cccc(CNC(=O)Cn2cccc2)c1 | >57 | -3% |
| CC(C)N(Cc1cc2ccccc2[nH]c1=O)C(=O)c1cccnc1 | >57 | -10% |
| COc1ccc(N(CC(=O)Nc2cc(C(=O)O)ccc2C)S(=O)(=O)c2c(C)noc2C)cc1 | >57 | -6% |
| O=C(Nc1c(C(=O)NCc2ccco2)cnn1-c1ccccc1)c1ccc(F)cc1 | nt | 1% |
| Cc1ccc(-c2nn3c(C)nnc3s2)cc1NC(=O)C(C)C | >57 | -4% |
| O=C(NCCN1C(=O)C2C3C=CC(C3)C2C1=O)NCc1ccccc1 (stereo not given) | >57 | -5% |
| O=C(NCCN1CCN(c2ccccc2)CC1)c1ccc(NC(=O)C2CCCO2)cc1 (stereo not given) | >57 | 3% |
| Cc1ccc2[nH]c(=O)c(-c3nc4c(C)cccn4c3NCc3ccco3)cc2c1 | >57 | ? |
| O=C(CN1C(=O)COc2ccccc21)NCCCN1CCc2ccccc2C1 | >57 | -24% |
| Cn1c(=O)c2c(ncn2Cc2cc(-c3ccccc3)no2)n(C)c1=O | >57 | 9% |
| Cc1ccccc1-c1cc(N(C)Cc2ccco2)ncn1 | >11 | -5% |
| C[C@H]1CCCC(=O)CCCCCc2cc(O)cc(O)c2C(=O)O1 | >57 | ? |
| CCOc1ccccc1CNc1nc2nc3c(c(=O)n2[nH]1)CCC3 | >57 | 0% |
| O=C(O)/C(=C/c1c(C(=O)O)[nH]c2cc(Cl)cc(Cl)c12)c1ccccc1 | >57 | 0% |
| O=C(Cc1ccccc1)Nc1nc2ccc(Cl)cc2c2nc(-c3ccco3)nn12 | >57 | ? |
| Cc1nn(-c2ccccc2)c(Cl)c1C(=O)NCC(=O)O | >57 | -15% |
| Nc1c(NCc2ccccc2F)c(=O)[nH]c(=O)n1Cc1ccccc1 | >57 | 0% |
| CC(C)(C)c1[nH]nc2c1C(c1ccncc1)C(C#N)=C(N)O2 (stereo not given) | >57 | 9% |
| O=C1CC(c2ccc(S(=O)(=O)NCCOc3ccccc3)cc2)CN1 (stereo not given) | >57 | -9% |
| Cn1c(SCC(=O)Nc2cccc3ccccc23)nc(O)cc1=O | >57 | ? |
| CCOC(=O)Cn1c(=O)sc2ccccc21 | nt | 6% |
| Cn1c(/N=C/c2c(O)ccc3ccccc23)nc2ccccc21 | ? | -9% |
| CCN1C(=O)/C(=C/N(C)C)c2ccccc21 | >57 | ? |
| O=C(NCc1cccnc1)C1c2ccccc2C(=O)N1C1CCCC1 (stereo not given) | >57 | -5% |
| CCOC(=O)C1=C(C)N=C2SCCC(=O)N2C1c1cccs1 (stereo not given) | nt | 15% |
| Cc1ncsc1C(=O)NCc1ccc(N2CCCC2=O)cc1 | >57 | -17% |
| Clc1ccccc1/C=C\c1ccnc2ccccc12 | >57 | -12%[8 µM] |
| CCOc1ccc(NC(=O)CSc2nnc(Cc3cccn3C)n2-c2ccc(OC)cc2)cc1 | >57 | -6% |

Later entries
| Structure | SmPrx2 inh | LT uptake inh |
| --- | --- | --- |
| Clc1ccccc1-c1nnc2sc(-c3cccs3)nn12 | >57 | -14% |
| O=C1CCCc2c1[nH]c1ccccc21 | >57 | 3% |
| NC(=O)CN(c1ccc(Cl)cc1)S(=O)(=O)c1ccccc1 | >57 | -1% |
| COC(=O)c1[nH]c2ccccc2c1NC(=O)CN1CCN(Cc2ccc3c(c2)OCO3)CC1 | >57 | -29% |
| Cc1ccc(S(=O)(=O)N(C)Cc2ccc(-c3nnc4n3CCC4)cc2)cc1 | >57 | 4% |
| Cc1nc2scc(-c3ccccc3)c2c(=O)n1/N=C/c1ccco1 | >57 | ? |
| COC(=O)c1ccc(COC(=O)C23CC4CC(CC(O)(C4)C2)C3)o1 | >57 | -8% |
| COc1ccc(C(=O)n2ccc(C)n2)cc1Br | >57 | 11% |
| O=S(=O)(Nc1cc(Cl)ccc1N1CCCCC1)c1cccs1 | >57 | ? |
| COc1ccc(C)cc1NC(=O)CSc1nnc(COc2ccc(Cl)cc2)n1Cc1ccco1 | nt | -15% |
| C/C(CCN1CCCc2nc(C)c(C)cc21)=N\OC[C@@H](O)COCc1ccco1 | nt | 8%[8 µM] |
| COc1ccc(-c2nnn(CC(=O)N(CC(=O)NC3CCCC3)Cc3cccs3)n2)cc1OC | >57 | 0% |
| Cc1cc(C)c(NC(=O)Cn2c(=O)n(Cc3ccco3)c(=O)c3ccccc32)c(C)c1 | >57 | -10% |
| COc1ccc2c(c1)CCc1c(C(=O)Nc3cc(C)n(Cc4ccc(Cl)cc4)n3)noc1-2 | >57 | 5% |
| Oc1[nH]c2ccccc2c1C1=NCCCC1 | >57 | -9% |
| COc1cc(C(=O)N2c3ccccc3CC2C)cc(OC)c1OC (stereo not given) | nt | 5% |
| Cc1nc(S(=O)(=O)NC2CCCCC2)c(C#N)c(C)c1Cl | >57 | 7% |
| C/C(=N/O)c1ccc2cc(Br)c3ccccc3c2c1 | >57 | ? |
| Cn1ccnc1SCC(=O)NC12CC3CC(CC(C3)C1)C2 | >57 | ? |
| Cc1cc(=O)oc(C)c1C(=O)NCc1ccccn1 | >57 | 18% |
| COc1ccc(-n2c(=O)c(C)nc3cnc(Oc4ccccc4)nc32)cc1 | >57 | ? |
| OC1(C(O)(c2ccc(-c3ccccc3)cc2)c2ccc(-c3ccccc3)cc2)CCCCC1 | >57 | -7%[8 µM] |
| CCn1c(=O)cc(SCC(=O)N2CCCCC2)c2ccccc21 | >57 | 10% |
| N#Cc1nc(-c2ccco2)oc1NCc1cccnc1 | >57 | -5% |
| c1nc(N2CCOCC2)c2c3c(sc2n1)CCCC3 | >57 | -10% |
| COc1cccc(-c2nn3c(-c4cc(C)[nH]n4)nnc3s2)c1 | >57 | -4% |
| COc1cccc(C2/C(=C(/O)c3ccc(F)cc3)C(=O)C(=O)N2CCN(C)C)c1 (stereo not given) | nt | -3% |
| O=C(NCc1ccc(Cl)cc1)c1ccc(COCC(F)(F)F)o1 | >57 | 0% |
| COC(=O)CN(c1ccc(F)cc1)S(=O)(=O)c1ccccc1 | >57 | -3% |
| CCN(CC)CCN=CC1=C(O)CNC1=O | >57 | -27% |
| COc1cc(C=C(C#N)C#N)cc(O)c1O | >57 | -8% |
| CC1=Nc2ccc(C)cc2N(Cc2ccccc2)C(=O)C1 | >57 | ? |
| Cc1ccc(-c2noc(C3CCCN(C(=O)C4CCCCC4)C3)n2)o1 (stereo not given) | >57 | -18% |
| N#CCCn1nc(-c2ccccc2)cc1Nc1ccccc1NC(=O)c1cccs1 | >57 | ? |
| CCOC(=O)[C@@H]1[C@@H]2c3ccccc3-c3ccccc3[C@H]2C[C@H]1O | >57 | ? |
| CCOC(=O)C1Cc2ccccc2C(=O)O1 (stereo not given) | >57 | ? |
